12-LOX inh – ALOX12 (human) lipoxygenase inhibition | purified 12hLO, xylenol orange hydroperoxide absorbance | Potency, µM (top dose mostly 108 µM), without a hit: at the top dose activity change, negative = inhibition, hits mostly inhibitors | 580,000 compounds, 1.1% hits | AID 1671190; further: potency means the concentration at half of the fitted maximal effect; on the % scale 0 is the no-effect control and ±100 the full control effect
Target sequence (P18054 whole entry, looked up): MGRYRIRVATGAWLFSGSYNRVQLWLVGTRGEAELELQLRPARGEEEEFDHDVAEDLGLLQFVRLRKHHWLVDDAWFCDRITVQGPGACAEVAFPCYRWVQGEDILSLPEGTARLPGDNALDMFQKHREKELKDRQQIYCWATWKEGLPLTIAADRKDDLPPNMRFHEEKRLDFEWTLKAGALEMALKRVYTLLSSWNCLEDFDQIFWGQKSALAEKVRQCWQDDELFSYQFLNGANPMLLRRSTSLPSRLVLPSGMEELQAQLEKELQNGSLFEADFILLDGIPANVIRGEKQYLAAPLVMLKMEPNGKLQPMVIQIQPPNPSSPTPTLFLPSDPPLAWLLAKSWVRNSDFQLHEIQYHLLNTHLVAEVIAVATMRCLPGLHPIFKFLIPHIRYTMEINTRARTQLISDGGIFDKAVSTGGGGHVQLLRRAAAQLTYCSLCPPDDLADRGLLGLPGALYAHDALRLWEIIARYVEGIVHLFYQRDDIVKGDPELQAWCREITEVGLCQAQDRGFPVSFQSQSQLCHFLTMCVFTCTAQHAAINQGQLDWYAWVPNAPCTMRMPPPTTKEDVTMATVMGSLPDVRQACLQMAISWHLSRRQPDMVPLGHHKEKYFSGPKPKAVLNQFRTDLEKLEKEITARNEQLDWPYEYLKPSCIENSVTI
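Purified human 12hLO at 150 nM in 25 mM Hepes, 0.01% Triton X-100, pH 7.0, preincubated 15 min at room temperature with compound. Reaction started with 40 uM arachidonic acid, 30 min at room temperature. Hydroperoxide measured by Fe-xylenol orange, 573/405 nm absorbance ratio.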
PI4K2A block – PI4K2A (human) kinase inhibition. 420,000 compounds, 0.13% hits. AID 1346378. activity change, negative = inhibition, % at 76.9 µM. purified PI4K2A, ADP-Glo luminescence, 1 h; hits give low values; in the data active means activity change below about -50%; inconclusive means mostly about -30% to -49%;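 further: -100% = wells without enzyme as full effect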
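ADP-Glo luminescence measured ADP generated by PI4K2A enzyme (4 ug/mL before mixing) with 1.2 mM PI substrate (pre-mix) and 300 microM ATP (pre-mix). Tris pH7.5 buffer with MgCl2, Triton X-100; 1 h reaction at ambient temperature.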
RGS4 inh – blocks human RGS4-accelerated GTP hydrolysis | Transcreener GDP fluorescence polarization, RGS4-accelerated GTP hydrolysis | Potency, µM (highest dose often 114 µM), for the others: at the highest dose activity change, negative = inhibition, most hits filed as inhibitors | 390,000 compounds, 0.039% hits | AID 504845; further: potency means the concentration at half of the fitted maximal effect; on the % scale 0 is the no-effect control and ±100 the full control effect; nearly all actives have a fitted effect of over 75% in size; some results filed as inactive show a strong effect at the top dose
Target sequence (P49798 whole entry, looked up): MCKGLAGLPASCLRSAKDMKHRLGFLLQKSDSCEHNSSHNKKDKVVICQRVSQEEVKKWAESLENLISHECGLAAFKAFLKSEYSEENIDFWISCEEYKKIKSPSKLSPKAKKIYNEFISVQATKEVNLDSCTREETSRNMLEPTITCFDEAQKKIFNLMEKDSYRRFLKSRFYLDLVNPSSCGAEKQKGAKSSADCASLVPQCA
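MLSMR compounds (23 nl, pin-transferred) preincubated 10 min at room temperature with a 500nM (2x) first reagent, then RGS4 at 900nM (2x) plus Transcreener GDP mix added; fluorescence polarization (620/688 nm) read before and after 90 min at 30 °C.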
GLS inh – glutaminase GLS (human) inhibition; O94925; GLS enzymatic activity, qHTS titration; Potency, µM (titrated, usually from 45.5 µM), inactives show at the highest dose activity change, negative = inhibition, actives largely listed as inhibitors; 410,000 compounds, 0.21% hits; AID 624170; further: potency means the concentration at half of the fitted maximal effect; on the % scale 0 is the no-effect control and ±100 the full control effect
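Compounds were pin-transferred onto hKGA, after which L-glutamine (1 mM solution) and a detection mix of glutamate oxidase, HRP and Amplex Red were added. Initial and 30 min RT fluorescence reads were collected.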
ERG-DNA inh – ERG Ets/DNA interaction inhibition; AID 624246; 370,000 compounds, 0.028% hits; P11308; fluorescence polarization, His-ERG Ets domain / labelled DNA; Potency, µM (highest dose often 76.9 µM), for the others: at the top dose FP activity, negative = inhibition, actives largely listed as inhibitors; active means well fitted inhibition curve with a large enough effect in the polarisation, with a control signal flat; inconclusive means small, poorly fitted or top-dose-only effect, or effect the other way, or a change in a side signal; inactive means no such curve, though single readings can be large or run the other way; the % refers to the polarisation;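 further: polarization taken with two DNA probes labelled with fluorescein and Texas red; potency means the concentration at half of the fitted maximal effect; % of control where 0% means no effect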
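His-tagged ERG Ets domain (1 uM in the protein solution; 300mM KCl, 50mM Tris-HCl, 1mM EDTA, 1mM DTT, pH 7.5) received compound, then a probe mix of 5 nM fluorescein-DNA and 100nM Texas-615-DNA. Fluorescence polarization was read for both dyes.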
G9a block – G9a (human) methyltransferase inhibition; Q96KQ7; G9a H3K9 monomethylation, AlphaScreen, 2 h; Potency, µM (doses to about 102 µM), for inactives: top-dose activity, negative = inhibition, hits mostly inhibitors; 350,000 compounds, 8.8% hits; AID 504332; further: potency means the concentration at half of the fitted maximal effect; on the % scale 0 is the no-effect control and ±100 the full control effect; nearly all actives have a fitted effect of over 75% in size
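G9a (20 nM) preincubated 15 min RT with compounds, then 500 nM biotinylated H3K9 peptide and 20 uM SAM added; 2 h RT reaction. Monomethyl-H3K9 product detected by AlphaScreen with anti-H3K9me1 antibody, streptavidin donor and anti-rabbit IgG acceptor beads.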
JMJD2A Tudor inh – inhibitors of human JMJD2A Tudor domain | AlphaScreen JMJD2A-Tudor / H3K4me3 peptide binding | Potency, µM (doses to about 114 µM), for the others: top-dose activity change, negative = inhibition, hits mostly inhibitors | 390,000 compounds, 4.4% hits; further: potency means the concentration at half of the fitted maximal effect; on the % scale 0 is the no-effect control and ±100 the full control effect; nearly all actives have a fitted effect of over 50% in size
HP1b chromo inh – HP1-beta chromodomain-methylated histone interaction inhibition; AlphaScreen HP1-beta / biotin-H3K9me3 peptide binding; Potency, µM (top dose mostly 114 µM), for the others: at the top dose activity change, negative = inhibition, actives largely listed as inhibitors; 390,000 compounds, 0.56% hits; AID 540317; further: potency means the concentration at half of the fitted maximal effect; nearly all actives have a fitted effect of over 70% in size; inactives centre near 23
Target sequence (P83916 whole entry, looked up): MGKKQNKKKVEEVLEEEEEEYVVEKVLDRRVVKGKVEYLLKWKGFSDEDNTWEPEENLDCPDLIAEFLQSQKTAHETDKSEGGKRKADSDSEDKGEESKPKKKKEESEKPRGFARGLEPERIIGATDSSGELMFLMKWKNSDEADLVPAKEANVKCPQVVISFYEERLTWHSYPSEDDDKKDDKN
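AlphaScreen: HP1-beta (50 nM) preformed 30 min with biotin-H3(1-18)K9me3 peptide (50 nM) in PBS pH 7.4, 0.01% Tween-20. Compound added for 30 min at RT, then streptavidin donor/nickel chelate acceptor beads (10 ug/mL) for 30 min.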
Active calls of the source: *; i = inactive; ? = inconclusive; / = not tested or not shown; & = joins results of further samples; [ ] = remark or other dose. Unless noted, the call rests on the fitted dose curve; in most records, active means well fitted curve in the direction sought with a large enough effect; inconclusive means small, poorly fitted or top-dose-only effect, or another doubt; inactive means no such curve, though single readings can be large; an effect the other way counts as inactive or inconclusive. An excerpt; count on the stated rates, not on these rows.

Below each compound: 12-LOX inh	ERG-DNA inh	G9a block	GLS inh	HP1b chromo inh	PI4K2A block	RGS4 inh	JMJD2A Tudor inh
1) CC(=O)c1c(C(C)=O)c(C)n(C(c2ccccc2)c2ccccc2)c1C
  6%	-3%	32µM*	-1%	-7%[57 µM]	-12	-3%	?
2) Cc1ccc(OCc2nc(C#N)c(N3CCN(Cc4ccccc4)CC3)o2)cc1
  0%[57.4 µM]	-1%	-1%[12.7 µM]	45%[activator]	?	11	6%[11.4 µM]	-26%[11.4 µM]
3) O=C(CSc1nnc(Cc2ccccc2)n1Cc1ccccc1)NCc1ccco1
  -12%	2%	-1%[59 µM]	-6%	-30%	-8	-16%[11.4 µM]	23%[11.4 µM]
4) COc1cc(OC)cc(C(=O)Nc2ccc(N3CCOCC3)cc2N2CCOCC2)c1
  53%[activator]	11%	18µM*	14%	22%	-2	-5%	-16%
5) COc1ccc(NC(=O)CSc2nnc(-c3cccs3)n2C)cc1OC
  0%	5%	-31%[59 µM]	0%	14%	-3	1%	-14%
6) COc1cc(NC(=O)N2c3ccccc3Sc3ccccc32)c(C(=O)O)cc1OC
  20µM*	0%	/	4%	-20%	4	-21%	?
7) O=C(NCC(c1cccnc1)N1CCc2ccccc21)C(=O)Nc1ccccc1F (stereo not drawn)
  -5%	6%	?	21%	3%	-3	7%	?
8) CCOc1cccc2sc(N(CCN(CC)CC)C(=O)c3cccc(N4C(=O)CCC4=O)c3)nc12
  ?	-2%	?	-3%	28%	-2	13%	-19%
9) COc1cc(C(=O)Nc2cc3c(cc2N2CCCCC2)n(C)c(=O)n3C)cc(OC)c1OC
  25%	6%	?	-7%	18%	-3	-11%	?
10) O=C(CSc1nnc2c3c4c(sc3ncn12)CCCC4)NCc1ccco1
  -8%	4%	-3%[2.33 µM]	-5%	38%	-3	9%[56.9 µM]	-5%[57.1 µM]
11) Cc1ccc(-c2c3c(=O)n(C)c(=O)n(C)c3cn2Cc2ccccn2)cc1
  4%	-1%	?	10%	55%[activator]	-6	-19%	-26%
12) Cc1ccc(C)c(CSc2ccc3nnc(-c4ccccn4)n3n2)c1
  4%	1%	2%	-1%	15%	1	-5%	-30%
13) COc1cc(OC)cc(-c2nc(SCC(=O)Nc3ccccc3F)n[nH]2)c1
  -15%	-2%	50µM*	8%	36%	-9	-10%	-10%
14) CCOC(=O)c1cc2c(ccn2-c2ccc(F)cc2)n1CC(=O)NC(C)(C)C
  /	/	-6%	/	/	/	/	/
15) O=C(CC1CCCCC1)Nc1ncn[nH]1
  475%[activator]	-4%	/	11%	22%	12	5%	-19%
16) Cn1c(SCCOc2ccccc2Cl)nnc1-c1ccncc1
  -6%	0%	-4%[59 µM]	5%	19%	3	-8%	-17%
17) COc1ccc(/C(O)=C2/C(=O)C(=O)N(CCN(C)C)C2c2ccccn2)cc1OC (stereo not drawn)
  -12%	-4%	?	3%	35%[activator]	-4	-7%	?
18) S=C1CCC(c2ccc(Cl)cc2)=NN1c1ccccc1
  0%	8%[15.4 µM]	40µM*	-12%	?	4	-5%	?
19) N#Cc1nc(COc2ccc(Br)cc2)oc1NCCCn1ccnc1
  17%	4%	40µM*	-15%	?	3	-16%	?
20) COCCn1c(=NC(=O)CSCC(=O)N2CCOCC2)sc2ccccc21
  i	-11%	22%	0%	48%[activator]	2	7%	2%
21) COc1ccc(C(c2nnnn2Cc2cccs2)N2CCN(c3ccccc3F)CC2)cc1OC (stereo not drawn)
  ?	2%	40µM*	-12%	-5%	-11	-11%	-32%
22) Cn1c(C(=O)N2CCCC(Nc3ccc(F)cc3)C2)cc2ccccc21 (stereo not drawn)
  10%	9%	?	2%	-18%	-1	-18%	?
23) CN(CC(=O)Nc1ccccc1[N+](=O)[O-])Cc1ccc(Br)cc1
  3%	5%	?	10%	?	1	-21%	?
24) Cn1ncc2nnn(-c3ccccc3)c(=O)c21
  0%	-11%	-6%[12.7 µM]	-7%	36%	7	-1%	2%
25) CC1S/C(=N\N=C\c2cccc([N+](=O)[O-])c2)N(C(C)(C)C)C1=O (stereo not drawn)
  5%	4%	?	0%	-19%	1	-25%	-31%
26) O=Cc1c(-c2ccccc2)cc2oc3ccccc3cc1-2
  /	3%	3.5µM*	7%	-11%	2	14%	?
27) N#Cc1cn(CC(=O)NCCc2c[nH]c3ccccc23)c2ccccc12
  ?	0%	0.89µM*	33%	32%	-8	2%	-7%
28) CCc1cccc(N=c2c([N+](=O)[O-])nn(-c3ccc4c(c3)OCCO4)n2O)c1
  -6%	1%	28µM*	-9%	?	3	-20%	?
29) CC(C)(C)c1ccc(C(=O)NC2(C(F)(F)F)C(=O)Nc3c2c(=O)[nH]c(=O)n3-c2ccccc2)cc1 (stereo not drawn)
  ?	-1%	4%[59 µM]	12%	20%	0	23%	-8%
30) O=C(NCc1ccco1)C12CN(Cc3ccccc3)CC1C(c1ccc([N+](=O)[O-])cc1)=NO2 (stereo not drawn)
  ?	-2%	6%[59 µM]	-1%	35%	-2	-43%	?
31) CCOC(=O)N1CCN(Cc2cc(=O)oc3ccc(Cl)cc23)CC1
  0%&3%	-1%	56µM*	16%	16%	1	-12%	-19%
32) COC(=O)C(NC(C)=O)(Nc1sc2c(c1C(N)=O)CCCC2)C(F)(F)F (stereo not drawn)
  1%	/	8.9µM*	8%	-1%	1	11%	-17%
33) O=C(Nc1nccs1)c1nc[nH]c1C(=O)NCc1ccccc1
  7%	-10%	-4%[0.501 µM]	-1%	44%[activator]	-5	-5%	?
34) Cc1cccc(/C=C2\Sc3ccc(C(=O)N4CCCCC4)cc3N(C)C2=O)c1
  4%	13%	5%	-6%	37%	1	18%	12%
35) CCn1cc(C(=O)N[C@H](C(=O)NCCCn2ccnc2)C(C)C)c(=O)c2cc3c(cc21)OCO3
  16%	4%	/	0%	39%	0	3%	-10%
36) C/C(=N\NC(=S)NCc1ccccc1)c1ccc(Cl)s1
  ?	9%	?	-18%	-25%	5	-17%	?
37) CCOC(=O)c1c(NC(=O)COc2ccc(C)cc2C(C)(C)C)sc2c1CCC(C)C2 (stereo not drawn)
  1%	3%	11%[59 µM]	1%	18%	-5	-24%	-9%
38) Cc1ccc(N2C(=O)CC(Sc3ccccc3C(=O)O)C2=O)c([N+](=O)[O-])c1 (stereo not drawn)
  ?	4%	0.35µM*	6%	12%	1	?	?
39) Cc1ccccc1C(=O)NC1(C(F)(F)F)C(=O)Nc2c1c(=O)[nH]c(=O)n2-c1ccc(F)cc1 (stereo not drawn)
  -24%	1%	7%[59 µM]	2%	52%[activator]	-3	-1%	-4%
40) COc1cc(OC)cc(C(=O)NC(C)CNc2ccc(Cl)cc2[N+](=O)[O-])c1 (stereo not drawn)
  -5%	-16%	-23%	1%	?	-2	23%	?
41) COc1ccc(-c2csc(Nc3ccc(C)cn3)n2)cc1OC
  ?	11%	50µM*	2%	?	10	-2%	?
42) Cc1ccc2cc(C)c(N3CCN(c4ccccn4)CC3)nc2c1
  -3%	4%	-32%[12.7 µM]	1%	72%[activator]	2	11%	18%
43) CC(C)C(=O)Nc1nnc(-c2ccccc2)o1
  -1%	10%	?	3%	55%[activator]	0	3%	-30%
44) O=C(O)c1ccc2c(=O)n3c(nc2c1)/C(=C/c1cccc(Cl)c1Cl)CCCC3
  -24%	13%	24%[59 µM]	0%	5%	-4	-15%	-11%
45) CN(c1ccccc1)c1nc(N2CCCC2)nc(-n2ccnc2)n1
  0%	3%	?	-4%	12%	7	-10%	?
46) CC(=O)CCc1oc2ccc(C)cc2c1-c1ccc(C)o1
  ?	16%	17%[12.7 µM]	-9%	-11%	2	?	?
47) C=CCSc1nnc(NC(=O)c2ccc(S(=O)(=O)NCC3CCCO3)cc2)s1 (stereo not drawn)
  -7%	5%	?	-6%	31%	-3	-5%	-13%
48) COc1ccc(Cc2ccc(OC)c(N)c2)cc1N
  17%	/	?	-3%	-11%	-1	-10%	?

Gathered by group: the entries above with an NH in an aromatic ring.
Below each compound: 12-LOX inh	ERG-DNA inh	G9a block	GLS inh	HP1b chromo inh	PI4K2A block	RGS4 inh	JMJD2A Tudor inh
13) COc1cc(OC)cc(-c2nc(SCC(=O)Nc3ccccc3F)n[nH]2)c1
  -15%	-2%	50µM*	8%	36%	-9	-10%	-10%
15) O=C(CC1CCCCC1)Nc1ncn[nH]1
  475%[activator]	-4%	/	11%	22%	12	5%	-19%
27) N#Cc1cn(CC(=O)NCCc2c[nH]c3ccccc23)c2ccccc12
  ?	0%	0.89µM*	33%	32%	-8	2%	-7%
29) CC(C)(C)c1ccc(C(=O)NC2(C(F)(F)F)C(=O)Nc3c2c(=O)[nH]c(=O)n3-c2ccccc2)cc1 (stereo not drawn)
  ?	-1%	4%[59 µM]	12%	20%	0	23%	-8%
33) O=C(Nc1nccs1)c1nc[nH]c1C(=O)NCc1ccccc1
  7%	-10%	-4%[0.501 µM]	-1%	44%[activator]	-5	-5%	?
39) Cc1ccccc1C(=O)NC1(C(F)(F)F)C(=O)Nc2c1c(=O)[nH]c(=O)n2-c1ccc(F)cc1 (stereo not drawn)
  -24%	1%	7%[59 µM]	2%	52%[activator]	-3	-1%	-4%
